Source: PubChem
Mtb MbtI inh = MbtI salicylate synthase inhibition | P9WFX0 | purified MbtI enzyme, fluorescence intensity read-out | inhibition, %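 (about 17 µg/mL by stock and volumes)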 | 100,000 compounds, 0.89% hits | AID 493033;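 active = above 50% in both replicates, above 80% if mildly self-fluorescent; inactive = the rest, strongly fluorescent compounds included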;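 also: 0% = mean of negative and 100% = mean of positive controls; one replicate is shown; some compounds called inactive have numbers as strong as hits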
MenB inh = Mtb MenB enzyme inhibition; P9WNP5; AID 540299; MenB enzyme assay, absorbance read-out; some hits fall short of the stated cut; 100,000 compounds, 0.43% hits; inhibition, %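 (about 12 µg/mL by stock and volumes)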;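 active = mean of two replicates above 30%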;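 also: 0% = no compound and 100% = wells with inactive enzyme; the first replicate is given; strong numbers were not always called active; inactives centre near -10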
Target sequence (P9WNP5 whole entry, looked up): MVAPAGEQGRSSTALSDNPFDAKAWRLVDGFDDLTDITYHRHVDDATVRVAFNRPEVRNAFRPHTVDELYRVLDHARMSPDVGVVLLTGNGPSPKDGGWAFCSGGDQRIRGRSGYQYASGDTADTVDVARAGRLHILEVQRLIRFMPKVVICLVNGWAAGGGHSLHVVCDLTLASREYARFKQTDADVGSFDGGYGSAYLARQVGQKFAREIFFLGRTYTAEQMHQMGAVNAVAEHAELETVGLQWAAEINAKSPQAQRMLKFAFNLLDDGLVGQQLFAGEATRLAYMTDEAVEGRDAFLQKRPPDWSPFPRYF
Polio RdRp inh = inhibitors of poliovirus RNA polymerase binding and polymerization. P03300. poliovirus polymerase elongation, fluorescence polarization; hits give low values. % elongation, % (compound at 16.7 µg/mL). 150,000 compounds, 0.66% hits; in the data active = % elongation below about 90%; also: some results filed as inactive read as strong as hits
Target sequence (P03300 1749-2209 limits assumed): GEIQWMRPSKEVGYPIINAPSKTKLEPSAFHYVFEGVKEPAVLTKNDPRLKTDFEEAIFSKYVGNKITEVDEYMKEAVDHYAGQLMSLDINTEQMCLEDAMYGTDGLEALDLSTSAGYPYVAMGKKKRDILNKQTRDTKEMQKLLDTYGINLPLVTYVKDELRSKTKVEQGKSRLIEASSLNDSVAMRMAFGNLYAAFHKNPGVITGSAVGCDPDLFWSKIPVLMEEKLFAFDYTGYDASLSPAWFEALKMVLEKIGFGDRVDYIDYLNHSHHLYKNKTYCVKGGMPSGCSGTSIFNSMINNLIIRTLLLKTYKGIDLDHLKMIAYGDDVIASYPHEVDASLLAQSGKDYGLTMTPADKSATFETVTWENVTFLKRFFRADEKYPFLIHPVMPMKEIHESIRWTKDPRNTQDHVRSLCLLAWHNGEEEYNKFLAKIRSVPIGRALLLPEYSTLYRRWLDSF
Polio RdRp inh intensity = also measured in Polio RdRp inh; calls as there; % elongation; measured here: total intensity read-out; formula for this scale not given here;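 total fluorescence in place of polarization; lower means less elongation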
* marks the source's active call; other numbers are inactive results; i = inactive; nt = not tested or not shown; & = joins results of further samples.

SMILES	Mtb MbtI inh	MenB inh	Polio RdRp inh	Polio RdRp inh intensity
O=C(CCN1c2ccccc2Sc2ccccc21)NC1=NCCS1	-19.2	-8.6	85.0*	77.0*
O=C1CC(c2ccco2)CC2=C1C(c1ccco1)N(C(=O)C(F)(F)F)c1ccccc1N2 (stereo not given)	-8.4	-1.4	102.0	100.0
O=C(O)CCCn1cc(NC(=O)c2ccc(Cl)cc2)cn1	-9.1	-15.8	107.0	99.0
O=C(CSc1ncc(C(F)(F)F)cc1Cl)N1CCN(S(=O)(=O)c2ccccc2)CC1	-5.3	-17.1	105.0	116.0
Cc1ccc2cnn(CC(=O)NC3CCCCC3)c2c1	-0.3	-0.9	101.0	98.0
Cc1cc(-c2ccccc2)nc(-c2ccccc2)c1C	nt	-27.6	104.0	100.0
CCCCC(=O)c1c(C)cc(C)[nH]c1=O	12.4	9.2	102.0	104.0
O=C(c1ccco1)N1CCN(Cc2ccccc2Br)CC1	-0.6	5.0	98.0	98.0
N#CC(C#N)=C(Nc1ccccc1)c1ccccc1	2.8	nt	102.0	103.0
Cc1ccc(C2=CC(=O)C=CC2=O)cc1	92.3	15.5	104.0	98.0
FC(F)(F)c1ccn(Cc2n[nH]c(=S)o2)n1	7.7	-17.7	99.0	103.0
Cn1cc[nH]c1=S	8.8&-10.9	-9.0&-0.2	95.0&101.0	110.0&103.0
O=S(=O)(Nc1nc2ccc(F)cc2s1)c1ccc(F)cc1F	12.8	4.0	101.0	99.0
Cc1ccc(-c2noc(CN(C3CCCCC3)S(=O)(=O)c3ccccc3)n2)cc1	6.0	-23.8	105.0	97.0
Cc1oc(-c2ccccc2)cc1C(=O)Nc1cccc(/C=C\C(=O)O)c1	nt	-5.1	105.0	108.0
COc1ccc(C2CC(=O)N(CC(=O)NC3CCCCC3)c3ccccc3S2)cc1OC (stereo not given)	3.5	-31.0	104.0	109.0
Cc1ccc2c(COC(=O)C3=COCCO3)cc(=O)oc2c1	6.5	-21.0	107.0	102.0
CC(C)CC(C(=O)n1nnc2ccccc21)N1C(=O)c2ccccc2C1=O (stereo not given)	15.4	-28.8	96.0	89.0
CC(C)N(C(=O)CCCN1C(=O)c2ccccc2C1=O)c1ccccc1	1.8	-0.8	94.0	94.0
Cc1ccc(C)c(NC(=O)CN(C)C(=O)CC2OC(=O)c3ccccc32)c1 (stereo not given)	-2.1	-6.5	104.0	107.0
CCC(=O)Nc1ccc(N2CCN(C)CC2)c(Cl)c1	-16.2	-15.8	102.0	103.0
NC(=O)Cc1ccc2sc(-c3ccccc3)nc2c1	-19.4	-20.3	102.0	106.0
Cc1cc(C(=O)OCC#N)c2ccccc2n1	22.7	-0.2	106.0	102.0
COc1cccc(CC(NC(C)=O)C(=O)NC2CCN(C(=O)C3CC3)CC2)c1OC (stereo not given)	-1.3	-25.0	101.0	101.0
COc1ccc(-n2ncc(NC(=O)N3CCOCC3)c2C)cc1	-8.2	-49.1	106.0	113.0
CCc1ccc(NC(=O)Nc2nnc(N3CCCC3)s2)cc1	-6.5	-25.4	103.0	100.0
COc1ccc(-c2noc(COC(=O)C3(c4ccc(Cl)cc4)CCC3)n2)c(OC)c1	-6.2	-26.5	110.0	110.0
O=C(Cn1c(=O)c2sccc2n(CC(=O)Nc2cccc(F)c2)c1=O)NCCc1ccccc1	-12.6	-4.3	102.0	107.0
Cc1cc(-c2ccccc2)n2ncnc2n1	45.1	nt	99.0	96.0
CC1CC(C)CN(C(=O)c2ccc(Cl)cc2)C1 (stereo not given)	-19.6	-15.0	105.0	101.0

Fetched one by one from the list above, 2 records:
SMILES	Mtb MbtI inh	MenB inh	Polio RdRp inh	Polio RdRp inh intensity
O=C(CSc1ncc(C(F)(F)F)cc1Cl)N1CCN(S(=O)(=O)c2ccccc2)CC1	-5.3	-17.1	105.0	116.0
N#CC(C#N)=C(Nc1ccccc1)c1ccccc1	2.8	nt	102.0	103.0

(continued)
SMILES	Mtb MbtI inh	MenB inh	Polio RdRp inh	Polio RdRp inh intensity
CCOC(=O)c1c(CSc2ccc(C)cc2)n(C)c2cc(Br)c(O)c(CN(C)C)c12	-1.2	-19.6	102.0	97.0
Cn1c(CC#N)n[nH]c1=S	16.1	-10.5	106.0	105.0
Cc1ccccc1Nc1nc(N)nc(CN2CC(C)OC(C)C2)n1 (stereo not given)	-14.7	-4.4	104.0	106.0
Nc1nc2ncc(CNc3ccc(C(=O)N[C@H](CCC(=O)O)C(=O)O)cc3)nc2c(=O)[nH]1	13.5	-26.0	102.0	99.0
NC(=O)Cn1cnc2sc3c(c2c1=O)CCC3	nt	-24.3	90.0*	101.0*
CCC(C)c1ccc(NC(=O)CSc2nc(N)cc(=O)[nH]2)cc1 (stereo not given)	12.3	-5.0	95.0	95.0
O=C(CSc1nnc(-c2c[nH]c3ccccc23)o1)NCCC1=CCCCC1	-4.7	4.6	102.0	101.0
O=C(NNc1nc(CN2CCOCC2)nc2scc(-c3ccccc3)c12)c1cccc(S(=O)(=O)N2CCOCC2)c1	-8.5	-74.8	106.0	111.0
Nc1sccc1C(=O)c1ccccc1	7.7	-19.0	102.0	100.0
Cc1ccc(C(CC(=O)NCCCN2CCCC2)N2Cc3ccccc3C2=O)cc1 (stereo not given)	-32.2	1.5	102.0	104.0
Cc1nc(SCC(=O)O)c2oc3ccccc3c2n1	14.7	1.7	99.0	102.0
O=C(COC(=O)C1CC2CCCC(C1)C2=O)NCc1cccs1 (stereo not given)	-9.4	3.8	100.0	101.0
CC(C)(C)NC(=O)CSc1nnc(NC(=O)Cn2cnc3ccccc3c2=O)s1	11.4	-18.0	99.0	99.0
CCOc1ccc(Cn2nnc(-c3ccc(S(C)(=O)=O)cc3)n2)cc1OCC	nt	-0.1	102.0	105.0
C(=N\c1nnc2nc[nH]n12)/c1ccco1	nt	-23.9	96.0	95.0
O=C(c1ccccc1)N1CCN(C(=O)c2cc3ccccc3oc2=O)CC1	-3.0	-2.5	104.0	102.0
CC(=O)N1CCN(/C(C)=C\C(=O)C(F)(F)F)CC1	14.2	-8.4	102.0	98.0
COC(=O)c1cc2sc(Cl)cc2n1CC(=O)N(C)c1ccccc1	1.3	-19.2	100.0	104.0
COc1ccc(C2CC(c3cccs3)=NN2C(=O)CS(=O)(=O)c2cn(C)c3ccccc23)cc1 (stereo not given)	-15.4	-16.5	100.0	102.0
CCOC(=O)CC(=O)c1c[nH]c2ccccc12	nt	-18.9	112.0	113.0
N=Nc1[nH]c(N)c2ccccc12	0.6	-144.5	101.0	103.0
Cc1cc(C)nc(NC(=O)C(c2ccccc2)c2ccccc2)n1	-8.4	-52.6	107.0	99.0
Cn1c(C(C(=O)NCC2CCCO2)N(Cc2ccc(F)cc2)C(=O)Cn2nnc3ccccc32)nc2ccccc21 (stereo not given)	-1.8	-25.7	103.0	99.0
COc1ccc(S(=O)(=O)N2CCC(C)CC2)cc1	19.8	7.3	100.0	98.0
Cc1cc(=O)[nH]c2cc3c(cc12)C(C)(C)C(C)N3C (stereo not given)	98.1	-29.6	111.0	154.0
O=C(Nc1ccccc1C(=O)Nc1ccccc1)c1cccs1	nt	-15.1	106.0	108.0
O=C(Cn1cnc2ccccc2c1=O)Nc1ccc(S(=O)(=O)N2CCCC2)cc1	1.1	7.9	100.0	101.0
CCC(c1n[nH]c(=S)o1)N(C)C (stereo not given)	84.4*	-51.1	89.0*	91.0*
CC(=O)Nc1ccc(C(=O)Cn2ncc(Cl)c(Cl)c2=O)cc1	8.6	13.8	99.0	96.0
O=C(NCCc1ccccc1)c1sc(=S)n2c1[nH]c(=O)c1ccccc12	66.5	-5.2	95.0	96.0
CC(=O)NC1=C(c2ccc(Br)cc2)C(=O)c2ccccc2C1=O	-1.0	nt	100.0	105.0
COC(=O)c1ccc(CN2CCCC(C)C2)cc1 (stereo not given)	-27.0	13.6	99.0	103.0
O=C(NCCC(=O)N1CCN(c2cccc(Cl)c2)CC1)NC12CC3CC(CC(C3)C1)C2	-11.8	-2.8	nt	nt
S=c1[nH]nc(-c2ccccc2)n1C1CCCC1	0.3	-16.2	101.0	104.0
CN(C)/C=C1/Sc2ccccc2C1=O	20.8	-366.6	102.0	102.0
CN(C(=O)CSc1ccc2c(c1)OCCO2)C1CCS(=O)(=O)C1 (stereo not given)	3.9	-12.4	101.0	103.0
Cc1cc(-c2ccccc2)nc2c1c(=O)[nH]c(=O)n2CC(C)C	-1.2	-12.7	107.0	101.0
O=C(CCNC(=O)c1ccc(Cl)cc1)NN1C(=O)NC2(CCCCC2)C1=O	15.1	-8.6	103.0	109.0
NC(=S)Nc1ccc(C(=O)O)cc1	92.2	-79.2	81.0*	85.0*
CC(C)(Oc1ccc(Cl)cc1)C(=O)Nc1ncn[nH]1	nt	-7.3	107.0	109.0
CC(C)c1ccc(C(O)CN2CCN(S(=O)(=O)c3cccc(C(F)(F)F)c3)CC2)cc1 (stereo not given)	-18.6	-23.2	101.0	96.0
COc1ccc(/C=C2\SC(=O)N(Cc3ccccc3Cl)C2=O)cc1O	-6.7	-61.0	101.0	103.0
O=C(NCCN1CCN(c2cccc(Cl)c2)CC1)c1[nH]nc2c1COc1ccccc1-2	-9.9	-34.5	100.0	102.0
O=C1/C(=N\O)CC2(C/C1=N/O)OCCO2	9.7	-8.3	100.0	102.0
COc1ccc(CNC(=O)COc2ncnc3c2cnn3-c2ccccc2)cc1	-26.4	-0.7	111.0	117.0
CSC1=NC(C)(C)CC12C=CC(=O)C(C)=C2 (stereo not given)	nt	-3.4	106.0	100.0
N#CNC1=NCN(CCN2CCOCC2)CN1	nt	1.4	102.0	107.0
O=C(O)CCSc1nnc2sc3ccccc3n12	3.2	-9.4	102.0	105.0
Cc1ccc(NC=C2C(=O)OC(C)(C)OC2=O)cc1	14.4	-10.1	103.0	97.0
N#CSc1ccc2c(c1)CCCN2C(=O)Nc1ccccc1	0.8	3.4	97.0	98.0
(listing goes on)
SMILES	Mtb MbtI inh	MenB inh	Polio RdRp inh	Polio RdRp inh intensity
N#CSC(C#N)Cc1ccc(Cl)c(Cl)c1 (stereo not given)	89.1*	nt	92.0	96.0
COc1ccccc1NC(=O)CN(Cc1ccco1)C(=O)/C=C/c1ccc(C)o1	39.6	-35.5	108.0	104.0
CCOC(=O)C(C#N)=c1sc(=C(C#N)C(=O)OCC)s1	75.5*	-19.2	88.0*	81.0*
CN1N=C(C(C)(C)C)CC1=O	-3.3	-20.8	105.0	83.0
COC(=O)c1ccc(NC(=O)CCCCl)cc1	0.0	nt	102.0	105.0
CCOC(=O)CN1NC(CC)(c2ccccc2)NC1=S (stereo not given)	nt	-12.8	106.0	110.0
Cc1cc(C)c2c(-n3cccc3)nn(CCCC(=O)Nc3ccc(F)cc3C)c2n1	-73.0	2.9	103.0	102.0
CC(=O)NCCC(=O)Nc1ccc2c(c1)-c1ccccc1C2	12.4	6.2	99.0	94.0
CC(=O)Oc1cn(C(C)C)c2nc(C)n3c4ccccc4nc3c12	-3.7	nt	102.0	172.0
COc1cc(=O)n(C)c2cc(N(C)C)ccc12	i	-27.3	103.0	108.0
CC1CC(C)CN(S(=O)(=O)c2ccc3c(c2)oc(=O)n3CC(=O)Nc2ccccc2F)C1 (stereo not given)	-7.7	10.3	101.0	104.0
CCc1nnc(NC(=O)/C=C/c2ccc(S(=O)(=O)N3CCCCCC3)cc2)s1	-2.4	-5.8	102.0	107.0
O=C(O)COc1ccc2c(c1)CCCC2	-7.8	-8.1	100.0	101.0
Cc1ccc(C)c(N=C(N)N=C(N)N)c1	-2.0	-21.9	101.0	100.0
Nc1nonc1-n1cc(CN2CCCCC2)nn1	nt	-20.8	99.0	101.0
C=CCSc1nc(N)cc(=O)[nH]1	-9.9	4.4	101.0	102.0
CCC1(C)Cc2sc3c(=O)[nH]c(=S)[nH]c3c2CO1 (stereo not given)	5.5	-14.2	99.0	102.0
Fc1ccc(-c2noc(-c3ccc4c(c3)CCO4)n2)cc1	-0.7	-6.6	102.0	103.0
O=C(NC1CCCC1)c1cc(-c2ccccc2)on1	-6.0	17.1	101.0	100.0
COc1ccc(OCC2CNC(=O)O2)cc1 (stereo not given)	2.6	1.5	103.0	103.0

Ordered by formula weight (highest first): part of the list above.
SMILES	Mtb MbtI inh	MenB inh	Polio RdRp inh	Polio RdRp inh intensity
CC1CC(C)CN(S(=O)(=O)c2ccc3c(c2)oc(=O)n3CC(=O)Nc2ccccc2F)C1 (stereo not given)	-7.7	10.3	101.0	104.0
CCc1nnc(NC(=O)/C=C/c2ccc(S(=O)(=O)N3CCCCCC3)cc2)s1	-2.4	-5.8	102.0	107.0
CCC1(C)Cc2sc3c(=O)[nH]c(=S)[nH]c3c2CO1 (stereo not given)	5.5	-14.2	99.0	102.0
O=C(NC1CCCC1)c1cc(-c2ccccc2)on1	-6.0	17.1	101.0	100.0
Nc1nonc1-n1cc(CN2CCCCC2)nn1	nt	-20.8	99.0	101.0
O=C(O)COc1ccc2c(c1)CCCC2	-7.8	-8.1	100.0	101.0

The results go on.
SMILES	Mtb MbtI inh	MenB inh	Polio RdRp inh	Polio RdRp inh intensity
CCOC(=O)C1=C(CC)Nc2ccccc2N=C1NC(=O)c1cc(OC)cc(OC)c1	1.2	-16.4	104.0	101.0
CN(C)c1ccc(/C=C2\CCC(C3CCCC3)C2=O)cc1 (stereo not given)	12.1	-15.2	101.0	107.0
O=C(CCn1c(=O)oc2ccccc21)NCCCN1CCN(c2ccc(F)cc2)CC1	-2.0	-15.2	101.0	98.0
O=C(CCn1c(=O)oc2ccccc21)N1CCCCCC1	0.3	-13.5	103.0	103.0
NC(=O)C1(N2CCCCC2)CCN(C(=O)Nc2ccccc2)CC1	-1.2	-18.1	105.0	103.0
CC(=O)Nc1ccc2ccccc2c1	-1.8	-0.8	98.0	100.0
